# GIV-Gai inh – inhibitors of GIV peptide binding to Galpha-i3, primary screen, biochemical, fluorescence polarization, FITC-GIV GBA peptide, rat Galphai3. Guanine nucleotide-binding protein G(i) subunit alpha-3 (Rattus norvegicus), P08753. hit rate 0.42% among 210,000. 90 min; hits give low values; scaled: aluminum fluoride 0%, vehicle 100%. percent of control (FP), % (no concentration beside the values);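 active means replicate mean at 85% of control or lower, very high polarization wells dropped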;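 further: wells of about 15 µL received 100 nL stock; the first replicate is given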
# Target sequence (P08753 whole entry, looked up): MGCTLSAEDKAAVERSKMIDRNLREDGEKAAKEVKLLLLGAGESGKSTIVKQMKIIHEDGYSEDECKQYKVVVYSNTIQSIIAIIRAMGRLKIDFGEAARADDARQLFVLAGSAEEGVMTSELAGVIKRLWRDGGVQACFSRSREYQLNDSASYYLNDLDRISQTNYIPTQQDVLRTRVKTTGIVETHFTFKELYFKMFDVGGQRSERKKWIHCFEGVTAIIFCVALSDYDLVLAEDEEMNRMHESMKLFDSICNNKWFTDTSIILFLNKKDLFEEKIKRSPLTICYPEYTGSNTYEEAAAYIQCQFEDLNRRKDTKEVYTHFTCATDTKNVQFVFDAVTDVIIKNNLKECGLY
# Sa growth inh – S. aureus growth inhibition at 42 and 30 °C, primary screen, LtaS inhibitor project, RN4220, two temperatures; hit rate 0.53% among 170,000; relative growth, % (concentration not given with the values); OD600, 20 h, 42 °C; hits give low values; AID 720641, 2013;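 active means growth at 42 °C up to 50% and 20 or more points under that at 30 °C, or under 10% at both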;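 further: 300 nL library stock went into each well; scaled to the means of positive and negative controls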
# HCMV UL50-53 inh – inhibitors of HCMV UL50-UL53 interaction, biochemical, HTRF; normalized percent inhibition; HCMV UL50-UL53 nuclear egress complex (human cytomegalovirus); hit rate 0.15% among 190,000; inhibition, % (test concentration not listed);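 active means both replicates at 50% or more, plus weaker picks with an unusually low signal ratio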;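 further: stock transfer was 100 nL into about 20 µL; 0% = negative control wells and 100% = wells with untagged competitor protein; inactives centre near -12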
# Sa growth inh second temp – recorded beside Sa growth inh, whose call it bears; relative growth, %; measured here: growth at 30 °C;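 optical density after 20 h as mean of two plates; 100% = untreated growth and lower means inhibition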
# Numbers without * were called inactive; x = no result given; & = joins results of further samples.
[1] C=CCn1cc(C(=O)OC)c(=O)c2cc(S(=O)(=O)N3CCCCCC3)ccc21
[2] COc1cccc(NC(=O)Cn2c(=O)n(CCC(=O)NCc3ccccc3OC)c(=O)c3ccccc32)c1
[3] Cc1ccccc1SCC(=O)NC1CCOC1=O (stereo not drawn)
[4] COc1ccc(C2CC(c3ccccc3)=NN2S(=O)(=O)c2ccc(C)cc2)cc1 (stereo not drawn)
[5] CCOC(=O)c1ccccc1NC(=O)CSc1nc2c(c(=O)n1CC)SCC2
[6] CC(C)c1csc(NC(=O)COc2ccccc2-c2nc(-c3ccccc3)no2)n1
[7] COc1ccc2c(c1)NC1(O)c3ccccc3C(=O)C21O (stereo not drawn)
[8] COc1ccc(NC(C)=O)cc1CN1CCn2c(nc3ccccc32)C1
[9] Cc1sc2c(c1C)c(=O)n(-c1ccc(Cl)cc1)c(=O)n2CC(=O)NC1CCCCC1
[10] CC(C(=O)NCCCN1CCOCC1)N1c2cccc3cccc(c23)S1(=O)=O (stereo not drawn)
screen / no. | 1 | 2 | 3 | 4 | 5 | 6 | 7 | 8 | 9 | 10
Sa growth inh | 105 | 104 | 92 | x | x | x | 76 | x | 96 | 105
Sa growth inh second temp | 92 | 90 | 93 | x | x | x | 83 | x | 96 | 83
HCMV UL50-53 inh | x | 7 | 2 | -28 | -10 | 2 | -19 | -29 | x | -44
GIV-Gai inh | 102 | 102 | x | 104 | 100 | 105 | x | 97 | 113 | 107

[11] CC1CCN(C(=O)C2CCN(S(=O)(=O)c3cnc[nH]3)CC2)CC1
[12] O=C(Nc1ccccc1C(=O)O)c1cc(S(=O)(=O)N2CCOCC2)cs1
[13] CCn1cc(-c2nc(-c3ccc(Cl)cc3)no2)c(=O)c2cc(F)c(N3CCOCC3)cc21
[14] COc1ccc(-c2noc(CSc3nnc(C)n3-c3ccc(C)cc3)n2)cc1OC
[15] Cc1cc(N2C(=O)CS/C2=C(/C#N)C(=O)C(C)(C)C)ccc1Cl
[16] Cc1ccsc1C(=O)N1CCN(S(=O)(=O)c2ccc3c(c2)NC(=O)CO3)CC1
[17] O=C(Nc1ccc(SC(F)F)cc1)c1cc(-c2ccc3c(c2)OCCO3)on1
[18] CN(Cc1ccccc1)C1CCN(Cc2ccncc2)CC1
[19] CCCCc1ccc(S(=O)(=O)NNC(=S)NCc2ccco2)cc1
[20] CCN(c1ccccc1)S(=O)(=O)c1ccc(CN2C(=O)c3cccnc3C2=O)cc1
screen / no. | 11 | 12 | 13 | 14 | 15 | 16 | 17 | 18 | 19 | 20
Sa growth inh | 101 | 94 | x | 111 | 80 | x | 101 | 98 | 100 | 105
Sa growth inh second temp | 90 | 81 | x | 84 | 56 | x | 89 | 90 | 97 | 101
HCMV UL50-53 inh | -8 | -14 | -31 | -7 | -23 | -25 | -14 | -6 | 10 | -5
GIV-Gai inh | 107 | 105 | 98 | 103 | x | 105 | 99 | 113 | 106 | 102

[21] COC(=O)C(NC=O)C(O)(Cc1ccccc1)C(F)(F)F (stereo not drawn)
[22] CC1=C(C(=O)N2CCCCC2)C(c2ccc3c(c2)OCO3)C2=C(CCCC2=O)N1 (stereo not drawn)
[23] CN(C)c1ccc(NC(=O)c2nc(-c3ccccc3)n(-c3ccccc3)n2)cc1
[24] Nc1ccn(C2CC(O)C(CO)O2)c(=O)n1 (stereo not drawn)
[25] CN(CCC#N)c1ccc(C=Nc2ccc(C(=O)O)cc2)cc1
[26] CC1CCN(C(=O)CCCN2C(=O)C(c3ccccc3)Oc3cccnc32)CC1 (stereo not drawn)
[27] COc1cc(OC)cc(C(=O)NCCn2c(-c3ccccc3)nc3cccnc32)c1
[28] CC(C)NC(=O)C1CCCN(S(=O)(=O)c2ccc(-n3cnnn3)cc2)C1 (stereo not drawn)
[29] Cc1cccc(N2CCN(C(=O)c3[nH]c(C)c(S(=O)(=O)N4CCOCC4)c3C)CC2C)c1 (stereo not drawn)
[30] CC(C)N(Cc1nc(-c2ccccc2)no1)C(=O)Cc1ccccc1
screen / no. | 21 | 22 | 23 | 24 | 25 | 26 | 27 | 28 | 29 | 30
Sa growth inh | 104 | 103 | x | 89 | 103 | 86 | x | 100 | x | 104
Sa growth inh second temp | 91 | 94 | x | 96 | 87 | 82 | x | 90 | x | 86
HCMV UL50-53 inh | -30 | 6 | -19 | 2 | -19 | -35 | -10 | -27 | -10 | 1
GIV-Gai inh | x | x | 91 | x | 97 | 106 | 107 | 98 | 111 | 106

[31] CCCCOc1ccc(-c2cc3c(N4CCC(C(=O)N5CCN(c6ccccc6OC)CC5)CC4)nccn3n2)cc1
[32] CCOC(=O)c1c(C)[nH]c(C)c1S(=O)(=O)N(C)CC(=O)NCc1ccc(Cl)cc1
[33] CCc1ccc(NC(=O)CN(C)S(=O)(=O)c2cccc3cccnc23)cc1
[34] Cc1ccc(NC(=O)Cn2c(=O)n(Cc3nc(C)no3)c(=O)c3cc4c(cc32)OCO4)c(C)c1
[35] CN(C(=O)CSc1ncc(-c2ccccc2)n1C)C1(C#N)CCCCC1
[36] CCS(=O)(=O)N1Cc2ccccc2CC1C(=O)NC1=NCCS1 (stereo not drawn)
[37] Nc1nc2c(s1)CCc1nonc1-2
[38] Cc1nn(-c2ccccc2)c2nc(C3CC3)cc(C(=O)NCc3ccccc3Cl)c12
[39] O=C(CC1Oc2ccccc2NC1=O)NC1CC1 (stereo not drawn)
[40] CC(c1ccccc1F)n1cc(C(=O)NCC2CCCO2)nn1 (stereo not drawn)
screen / no. | 31 | 32 | 33 | 34 | 35 | 36 | 37 | 38 | 39 | 40
Sa growth inh | x | 95 | 106 | 101 | 104 | 99 | 104 | 102 | 116 | 106
Sa growth inh second temp | x | 99 | 89 | 94 | 102 | 89 | 91 | 90 | 84 | 89
HCMV UL50-53 inh | -10 | x | 7 | 1 | -17 | -17 | 4 | x | 1 | -2
GIV-Gai inh | 108 | 103 | 106 | 106&110 | x | x | x | 110 | 102 | 101

[41] Cc1nn(Cc2ccccc2)c(C)c1CC(=O)O
[42] CS(=O)(=O)N(CC(=O)N1CCOCC1)c1cccc2ccccc12
[43] CCOC(=O)c1cn2nc(Oc3ccc(C(=O)OC)cc3)ccc2n1
[44] CSc1cccc(NC(=O)c2ccc3c(c2)c(C)c(C)n3Cc2ccc(F)cc2)c1
[45] Oc1ccc(Cl)cc1C=NCCc1c[nH]c2ccccc12
[46] CC1(C)NC(C)(C)c2nonc2/C1=N\O
[47] CC1Cc2ccccc2N1S(C)(=O)=O (stereo not drawn)
[48] CCOC(=O)c1nnn2c1nc(N(CC)CC)c1ccccc12
[49] COc1cc(/C=C/c2nc(C#N)c(N3CCCCC3)o2)cc(OC)c1OC
[50] COc1ccc(NC(=O)C2CCCN(c3ncnc4onc(C)c34)C2)cc1OC (stereo not drawn)
screen / no. | 41 | 42 | 43 | 44 | 45 | 46 | 47 | 48 | 49 | 50
Sa growth inh | 94 | 94 | 95 | 106 | 102 | 104 | 95 | 112 | 106 | 120
Sa growth inh second temp | 84 | 80 | 86 | 99 | 86 | 87 | 100 | 93 | 86 | 97
HCMV UL50-53 inh | 0 | -14 | -15 | x | -2 | 2 | -30 | -13 | 19 | x
GIV-Gai inh | 101 | 106 | 104 | 104 | x | 101 | 101 | 106 | 104 | 108

[51] O=C(O)CSCC(=O)Nc1nc(-c2cccs2)cs1
[52] Cc1cccc(/C=N/n2cnnc2)c1
[53] CCOc1ccccc1CNC(=O)CC(C(=O)N1CCc2ccccc21)n1ccnc1 (stereo not drawn)
[54] COc1ccc(N2C(=O)CCS2(=O)=O)cc1S(=O)(=O)N1CCCC1
[55] c1ccc2c(NCC3CCCO3)nc(N3CCCCC3)nc2c1 (stereo not drawn)
[56] CN1c2ccccc2C(=O)NC1c1cccc(C(F)(F)F)c1 (stereo not drawn)
[57] Cc1ccc(C)c(Cn2c(CO)nc3ccccc32)c1
[58] Cc1oc(-n2cccc2)c(C#N)c1C(=O)NCc1ccc(Cl)cc1
[59] COc1ccc(NC(=O)CSc2nc(-c3ccco3)cc(C(F)(F)F)n2)cc1Cl
[60] CCC(C)NC(=O)c1ccc(OC(C)=O)cc1 (stereo not drawn)
screen / no. | 51 | 52 | 53 | 54 | 55 | 56 | 57 | 58 | 59 | 60
Sa growth inh | 87 | 88 | 101 | x | 97 | 100 | 88 | 79 | 87 | 96
Sa growth inh second temp | 93 | 97 | 86 | x | 73 | 98 | 87 | 83 | 90 | 94
HCMV UL50-53 inh | -54 | -10 | -28 | 3 | 10 | -4 | x | -26 | -18 | -6
GIV-Gai inh | x | x | 101 | 100 | 107 | x | 105 | x | 99 | x

# From compound 59 to 60, as listed above:
[59] COc1ccc(NC(=O)CSc2nc(-c3ccco3)cc(C(F)(F)F)n2)cc1Cl
[60] CCC(C)NC(=O)c1ccc(OC(C)=O)cc1 (stereo not drawn)
screen / no. | 59 | 60
Sa growth inh | 87 | 96
Sa growth inh second temp | 90 | 94
HCMV UL50-53 inh | -18 | -6
GIV-Gai inh | 99 | x

# Following part.
[61] Cc1ccc(-c2csc(NC(=O)N3CCOCC3)n2)cc1
[62] CCOc1cc(S(=O)(=O)n2cccn2)ccc1F
[63] C[C@]12C=CC(=O)C=C1CC[C@H]1[C@@H]3C[C@@H](O)[C@](O)(C(=O)CO)[C@@]3(C)C[C@H](O)[C@@]12F
[64] O=C(Nc1ccccc1)C1=C(O)CC(c2ccco2)CC1=Nc1ccccc1 (stereo not drawn)
[65] Cc1cc2oc(C(=O)N(Cc3ccc(Cl)cc3)Cc3ccco3)c(C)c2cc1Cl
[66] COc1cc2c3nc4n(c(=O)c3n(C)c2cc1OC)CCS4
[67] Cn1c(=O)c2c(nc(N3CCCCC3)n2CC(O)COc2ccc(Cl)cc2)n(C)c1=O (stereo not drawn)
[68] CCCNC(=O)N1CCN(Cc2ccc(F)cc2Cl)CC1
[69] COC(=O)C(C)N1C(=O)S/C(=C/c2ccc(C)o2)C1=O (stereo not drawn)
[70] Cc1nnc(SCCn2c(N(C)Cc3ccccc3)nc3c2c(=O)n(C)c(=O)n3C)s1
screen / no. | 61 | 62 | 63 | 64 | 65 | 66 | 67 | 68 | 69 | 70
Sa growth inh | x | 74 | 88 | 102 | 97 | 98 | x | 101 | 112 | 107
Sa growth inh second temp | x | 102 | 88 | 91 | 83 | 78 | x | 97 | 61 | 101
HCMV UL50-53 inh | -2 | x | -42&-19&-28 | -12 | -4 | -7 | 6 | -28 | -26 | 2
GIV-Gai inh | 107 | 104 | 98&97 | 110 | 101 | 108 | 109 | 106 | 253 | 102

# Filtered by structure, those above with two or more sulfur atoms
[5] CCOC(=O)c1ccccc1NC(=O)CSc1nc2c(c(=O)n1CC)SCC2
[12] O=C(Nc1ccccc1C(=O)O)c1cc(S(=O)(=O)N2CCOCC2)cs1
[16] Cc1ccsc1C(=O)N1CCN(S(=O)(=O)c2ccc3c(c2)NC(=O)CO3)CC1
[19] CCCCc1ccc(S(=O)(=O)NNC(=S)NCc2ccco2)cc1
[36] CCS(=O)(=O)N1Cc2ccccc2CC1C(=O)NC1=NCCS1 (stereo not drawn)
[51] O=C(O)CSCC(=O)Nc1nc(-c2cccs2)cs1
[54] COc1ccc(N2C(=O)CCS2(=O)=O)cc1S(=O)(=O)N1CCCC1
[70] Cc1nnc(SCCn2c(N(C)Cc3ccccc3)nc3c2c(=O)n(C)c(=O)n3C)s1
screen / no. | 5 | 12 | 16 | 19 | 36 | 51 | 54 | 70
Sa growth inh | x | 94 | x | 100 | 99 | 87 | x | 107
Sa growth inh second temp | x | 81 | x | 97 | 89 | 93 | x | 101
HCMV UL50-53 inh | -10 | -14 | -25 | 10 | -17 | -54 | 3 | 2
GIV-Gai inh | 100 | 105 | 105 | 106 | x | x | 100 | 102

# Next section:
[71] N#Cc1cccc(NCCN2CCNC2=O)n1
[72] N#CC1c2ccccc2C=CN1C(=O)c1ccccc1F (stereo not drawn)
[73] Cc1ccc(Cl)cc1N1CCN(C(=O)C2CCCN2c2nnc(N3CCCC3=O)s2)CC1 (stereo not drawn)
[74] O=C(c1ccc(OCCN2CCCCC2)cc1)c1c(-c2ccc(O)cc2)sc2cc(O)ccc12
[75] Nc1nnn2c(=O)c3cccc4cccc(c43)c12
screen / no. | 71 | 72 | 73 | 74 | 75
Sa growth inh | 105 | 111 | 100 | 95&98 | 87
Sa growth inh second temp | 88 | 87 | 84 | 68&82 | 94
HCMV UL50-53 inh | -24 | -14 | 5 | -44&-45&2&-48&-23&-94&-30 | -108
GIV-Gai inh | 100 | x | 109 | 96&99 | 88

# Retrieved by compound from above, 6 records:
[3] Cc1ccccc1SCC(=O)NC1CCOC1=O (stereo not drawn)
[73] Cc1ccc(Cl)cc1N1CCN(C(=O)C2CCCN2c2nnc(N3CCCC3=O)s2)CC1 (stereo not drawn)
[13] CCn1cc(-c2nc(-c3ccc(Cl)cc3)no2)c(=O)c2cc(F)c(N3CCOCC3)cc21
[71] N#Cc1cccc(NCCN2CCNC2=O)n1
[11] CC1CCN(C(=O)C2CCN(S(=O)(=O)c3cnc[nH]3)CC2)CC1
[34] Cc1ccc(NC(=O)Cn2c(=O)n(Cc3nc(C)no3)c(=O)c3cc4c(cc32)OCO4)c(C)c1
screen / no. | 3 | 73 | 13 | 71 | 11 | 34
Sa growth inh | 92 | 100 | x | 105 | 101 | 101
Sa growth inh second temp | 93 | 84 | x | 88 | 90 | 94
HCMV UL50-53 inh | 2 | 5 | -31 | -24 | -8 | 1
GIV-Gai inh | x | 109 | 98 | 100 | 107 | 106&110

# High-throughput results as filed in PubChem.
